GIRK2 activ: activators of human GIRK2 potassium channels. G protein-activated inward rectifier potassium channel 2 (Homo sapiens), P48051. HEK293-GIRK2 thallium flux, Thallos fluorescence. calls only for hits at 25 µM. actives 0.05% (n = 63,000). AID 1259325, 2017;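 active = among the strongest 0.2% of first-round signals and kept after retests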;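 also: first round at about 10 µM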
Target sequence (P48051 whole entry, looked up): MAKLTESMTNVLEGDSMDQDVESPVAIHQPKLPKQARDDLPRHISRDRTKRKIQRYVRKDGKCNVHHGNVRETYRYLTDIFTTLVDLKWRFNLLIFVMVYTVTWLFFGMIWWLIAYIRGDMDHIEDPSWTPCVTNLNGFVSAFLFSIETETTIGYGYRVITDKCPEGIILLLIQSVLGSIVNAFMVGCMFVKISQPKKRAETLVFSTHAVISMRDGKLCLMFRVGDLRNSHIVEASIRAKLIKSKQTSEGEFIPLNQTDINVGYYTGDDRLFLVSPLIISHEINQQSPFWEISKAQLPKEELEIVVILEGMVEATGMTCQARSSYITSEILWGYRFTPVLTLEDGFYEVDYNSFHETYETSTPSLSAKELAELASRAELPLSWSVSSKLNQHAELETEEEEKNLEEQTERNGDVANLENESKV
Calls only; i = inactive. The list is partial; rates above refer to the full screens.

structure,GIRK2 activ
O=C(CSc1nccn1-c1cccc(C(=O)NCc2cccs2)c1)NCc1ccc(F)cc1,i
O=C(/C=C/c1ccc2c(c1)OCO2)NCCC(O)C1CC1 (centres undefined),i
CCn1cnc2c(-c3ccccc3)cn(CC(=O)Nc3ccc(OC)c(Cl)c3)c2c1=O,i
Cn1cc(C(=O)NCCc2cccs2)c(S(=O)(=O)N2CCN(c3ccc(Cl)cc3)CC2)n1,i
COc1ccc(S(=O)(=O)N2CC(C)OC(C)C2)c(C)c1C (centres undefined),i
COc1ccc(C(O)=C2C(=O)C(=O)N(c3cc(C)on3)C2c2ccccc2OC)cc1 (centres undefined),i
CCCCCC(=O)N=C1SC2CS(=O)(=O)CC2N1c1ccc(Br)c(C)c1 (centres undefined),i
CN(C)c1ccc(C(=S)N2CCN(C(=S)c3ccccc3O)CC2)cc1,i
CCC(=O)Nc1cc(C)nc2c(OC)cccc12,i
O=C(Cn1c(=O)cc(-c2nc(C3CC3)no2)c2ccccc21)NCc1ccc2c(c1)OCO2,i
CCCc1cnc2c(c1SCCC(C)C)c(=O)n(C)c(=O)n2C,i
Cc1ccc(-n2cc(C(=O)N3CCN(c4ccccc4)CC3)nn2)cc1,i
CC1CCCCN1C(=O)CN1CCN(c2cccc(Cl)c2)C1=O (centres undefined),i
Cc1cc(NS(=O)(=O)c2ccc(NC(=O)C(C)n3nc(-n4cccn4)ccc3=O)cc2)nc(C)n1 (centres undefined),i
CCOC(=O)Cc1csc(NC(=O)CCn2cnc3ccccc3c2=O)n1,i
Cc1noc(-c2ccc(NC(=O)Cc3ccccc3)cc2)n1,i
CCc1noc(C2CC(=O)N(c3c(C)cc(C)cc3C)C2)n1 (centres undefined),i
COc1cccc(C2c3c(oc4cc(OC)ccc4c3=O)C(=O)N2c2nccs2)c1 (centres undefined),i
COc1ccc(S(=O)(=O)Nc2ccc(Nc3cc(-n4cccn4)ncn3)cc2)cc1Cl,i
CCOC(=O)c1cccc(NC(=O)c2ccc3nnsc3c2)c1,i
COCCCn1c(SCc2nc(-c3cccc(Cl)c3)oc2C)nc2ccccc2c1=O,i
CN(C)c1cccc(C(=O)NCC(c2cn(C)c3ccccc23)N(C)C)c1 (centres undefined),i
CCOc1ccc(NC(=O)CSc2nc3c(sc(=S)n3-c3ccccc3)c(=O)[nH]2)cc1,i
Cc1noc(C)c1CCC(=O)NCCn1nc(C2CC2)n(-c2ccccc2)c1=O,i
COc1cccc(COc2coc(C(=O)Nc3nc4ccccc4s3)cc2=O)c1,i
C=CCn1c(Cc2ccc(OC)c(OC)c2)nc2ccccc21,i
COc1ccc(CNC(=O)Cn2ccn3nc(-c4ccc(OC)c(OC)c4)cc3c2=O)cc1,i
Cc1cc(C)nc(SCc2nnc(SCC(=O)NC3CCCCC3)n2-c2ccccc2)n1,i
CNC(=O)Cc1csc(NC(=O)/C=C/c2ccco2)n1,i
CCC(C)C(=O)O[C@H]1CCC=C2C=C[C@H](C)[C@H](CC[C@@H](O)C[C@@H](O)CC(=O)O)[C@H]21 (some centres undefined),i
O=C(Nc1ccc2c(c1)CCCN2C(=O)c1ccco1)c1ccc(Cl)cc1,i
CSc1cccc(-c2nnc(NC(=O)Nc3ccccc3F)o2)c1,i
COc1ccc(Br)cc1C1SCCN1S(=O)(=O)c1cccc(C)c1 (centres undefined),i
Cc1csc(C(=O)NCCc2nc(C)cc(C(F)(F)F)n2)c1,i
CCN(CCCNC(=O)CCn1c(=O)[nH]c2ccccc2c1=O)c1ccccc1,i
CCS(=O)(=O)c1cccc(C(=O)N(CCN2CCOCC2)c2nc3cc(OC)ccc3s2)c1,i
COCCNC(=O)Nc1nc(-c2ccc3c(c2)OCO3)cs1,i
COCCn1c(-c2ccco2)nc2oc3cc(OC)ccc3c(=O)c2c1=O,i
O=C(NCCCc1ccccc1)N(CC(F)(F)F)C1CCOCC1,i
O=C(CCC1CCCC1)NCCCS(=O)(=O)N1CCN(c2ccc(F)cc2)CC1,i
Cc1cn2c3c(=O)[nH]c(=O)n(C)c3nc2n1-c1ccccc1O,i
O=S(=O)(NCc1ccsc1)C1CCCCC1,i
CC(Cc1cccs1)NC(=O)c1c(F)cccc1Cl (centres undefined),i
CCOC(=O)C1CCN(CC(O)COc2ccccc2C(C)C)CC1 (centres undefined),i
c1ccc(-c2[nH]ncc2-c2ccnc(-c3ccc(OCCn4ccnc4)cc3)c2)nc1,i
Cn1nc(CNC(=O)c2cc(C3CC3)on2)c2c1CCCC2,i
COc1cccc(N2CCN(C(=O)c3cn(C)nn3)CC2)c1,i
CSc1ccccc1NC(=O)c1nnn(-c2ccc3noc(-c4ccccc4)c3c2)c1C,i
COc1ccccc1CNC(=O)C(=O)Nc1ccc(N2CCCS2(=O)=O)cc1,i
CC(C)CC(=O)Nc1ccc2c(c1)CCN2C(=O)C1CC1,i

Continuation.
structure,GIRK2 activ
Cc1ccc(-c2cc3c(=O)n(CC(=O)Nc4cccc(C(F)(F)F)c4)ncn3n2)cc1C,i
Cc1ccc(NC(=O)c2nc(-c3cn(-c4ccc(F)cc4)nn3)no2)cc1C,i
COc1cc(S(=O)(=O)n2cnc(C)c2)ccc1Br,i
Cc1ccc(/C=C/S(=O)(=O)N2CCC(CSc3nccn3C)CC2)cc1,i
CCOCCCn1c(C)c(C)n2c3c(=O)n(Cc4c(Cl)cccc4Cl)c(=O)n(C)c3nc12,i
Cc1c(Cl)cccc1S(=O)(=O)NCc1cc(-c2ccncc2)n(C2CCCC2)n1,i
Cc1noc(C2CN(CC(=O)Nc3ccc(C(N)=O)cc3)C2)n1,i
N#CCSc1nnc2n(CCC(=O)NC3CCCCC3)c(=O)c3ccccc3n12,i
Cc1c(C)n2c3c(=O)n(C)c(=O)n(C)c3nc2n1Cc1ccco1,i
O=C(c1cc2ccccc2o1)N1CCC(CSc2ccccn2)CC1,i
Cc1ccc(-c2nc(NC(=O)CSc3nnc(C)s3)ns2)cc1,i
O=C(NCc1ccc(C(=O)c2cccs2)s1)c1cc(C2CC2)on1,i
CC(C)CCN1C(=O)C(C)(C)COc2ccc(NC(=O)NC(C)(C)C)cc21,i
COc1ccc2c(=O)c3c(=O)n(Cc4ccccc4)c(-c4cccs4)nc3oc2c1,i
O=C(COc1ccc(Cl)cc1)N1CCN(c2ccc3nnc(-c4ccco4)n3n2)CC1,i
COCCN1CCC(NC(=O)c2cc(C)oc2C)CC1,i
CCc1nnc2ccc(N3CCN(S(=O)(=O)c4cc(C)cc(C)c4)CC3)nn12,i
Cn1cccc1C(CNC(=O)c1ccc2c(c1)OCO2)N1CCc2ccccc2C1 (centres undefined),i
Cc1cc(C)c(C#N)c(SCC(=O)c2ccc(O)cc2O)n1,i
O=C(NCCOc1ccc(-c2ccc(F)cc2)nn1)c1cc2ccccc2o1,i
CCc1ccccc1NC(=O)C(=O)NCCN1CCN(c2ccc(F)cc2)CC1,i
CSc1ccccc1C(=O)Nc1ccc2cn[nH]c2c1,i
CCc1ccc(S(=O)(=O)Nc2ccc(-c3csc4nc(C)cc(=O)n34)cc2)s1,i
O=C(NC1CC(=O)N(C2CC2)C1)c1ccc2c(c1)OCO2 (centres undefined),i
COc1nn(C)cc1C(=O)Nc1ccc(C(=O)Nc2nnc(C)s2)cc1,i
CCOc1ccc(-c2nc(CSc3nc4c(c(=O)[nH]3)CCCC4)c(C)o2)cc1,i
CCOC(=O)c1c(NCc2ccc(CC)cc2)c2cc(F)ccc2[nH]c1=O,i
Cn1nc(C(=O)Nc2ccc(C(N)=O)cc2)ccc1=O,i
COc1cccc(N2CCCn3c2nc2c3c(=O)n(CC(=O)OCc3ccccc3)c(=O)n2C)c1,i
CSc1ccccc1C(=O)NCCC(O)C1CC1 (centres undefined),i

Molecules shown so far containing a cyano group:
structure,GIRK2 activ
N#CCSc1nnc2n(CCC(=O)NC3CCCCC3)c(=O)c3ccccc3n12,i
Cc1cc(C)c(C#N)c(SCC(=O)c2ccc(O)cc2O)n1,i

Following part:
structure,GIRK2 activ
CNc1nn(CC(=O)Nc2c(C)cc(C)cc2C)c(N)c1-c1nc(-c2ccccc2C)no1,i
CCOCCn1c(=O)c2c(nc(-n3nc(C)cc3C)n2Cc2ccc(F)cc2)n(C)c1=O,i
COc1ncc(NC(=O)Nc2cccc(C(F)(F)F)c2)cn1,i
CC1CCN(c2cc(NC(=O)c3ccccc3C(F)(F)F)ncn2)CC1,i
CCOC(=O)c1sc(NC(=O)CSc2cc(-c3ccc(F)cc3)ncn2)nc1C,i
Cc1nc(C)n2c(=O)n(CC(=O)Nc3ccccc3Cl)nc2c1C,i
COc1cccc(COc2coc(C(=O)N3CCCCC3)cc2=O)c1,i
COC(=O)c1sccc1S(=O)(=O)Nc1ccc(C(N)=O)cc1,i
Cn1nnn(-c2ccc(NC(=O)c3cc(=O)c4ccccc4o3)cc2)c1=O,i
Cc1nc2cc(NC(=O)c3nnn(-c4ccc(OC(F)(F)F)cc4)n3)ccc2s1,i
Cc1ccccc1OCC(=O)NCCc1nc(-c2ccco2)cn1C,i
COc1ccc(NC(=O)c2cn(Cc3ccc(NC(=O)c4ccc(F)cc4)cc3)cn2)cc1OC,i
O=C(NCc1ccccc1)Nc1ccc2c(c1)CCCN2C(=O)C1CC1,i
C=CCNC(=O)C(=O)Nc1ccc(C)c(F)c1,i
CC1=NN(CC(N)=O)c2nc3c(c(=O)n(Cc4ccccc4C)c(=O)n3C)n2C1,i
C[C@H]1CC(=O)C2=C(C1)C(O)C(O)[C@@]1(O)[C@H]2C(=O)c2cccc(O)c2[C@@H]1O (some centres undefined),i
Cc1cc(CNS(=O)(=O)c2c(C)c(C)cc(C)c2C)c(C)o1,i
COc1ccc(C)c2sc(N(Cc3ccccc3)C(=O)c3ccn(C)n3)nc12,i
CCc1ccc(S(=O)(=O)c2c[nH]c3cc(OC)c(OC)cc3c2=O)cc1,i
CCCCn1c(=O)c2c(nc3n(CCN4CCOCC4)c(C)cn23)n(C)c1=O,i
O=C(CSc1ccc(F)cc1)NCCCn1cccc1,i
COc1cccc(CNC(=O)Cn2cnc3c(-c4ccc(Cl)cc4)csc3c2=O)c1,i
COc1cc(-c2noc(CN3C(=O)COc4cc(Cl)ccc43)n2)cc(OC)c1OC,i
COc1cc(OC)c(NC(=O)Cn2cnc3c(sc4cccc(F)c43)c2=O)cc1Cl,i
O=C(CCCn1cnc(-c2ccccc2)cc1=O)NCCc1csc(-c2ccccc2)n1,i
Cc1noc(C)c1CC(=O)Nc1cc(N2CCC(C)CC2)ncn1,i
O=C(NC1CCS(=O)(=O)C1)c1nnn(-c2ccc(F)cc2)n1 (centres undefined),i
COc1cc(-c2nnc(NC(=O)C3CC3)o2)cc(OC)c1OC,i
Cn1nc(C(=O)N2CC(c3nc(-c4cccs4)no3)C2)ccc1=O,i
COC(=O)c1ccc(C2c3c(oc4ccccc4c3=O)C(=O)N2CCCO)cc1 (centres undefined),i
O=C(NCCNc1ccc(-n2cccc2)nn1)c1cccs1,i
Cc1noc(C)c1S(=O)(=O)NCC(c1cccn1C)N(C)C (centres undefined),i
COc1ccccc1CNC(=O)Cn1cnc2c([nH]c3cc(OC)c(OC)cc32)c1=O,i
CC(C)(C)NC(=O)N1CC(Oc2nc3c(Cl)cccc3s2)C1,i
O=C(Cc1[nH]nc2ccc(F)cc12)NCCCc1ccccc1,i
Cc1noc(C)c1CCC(=O)N1CCN(c2c(C)nn(C3CCS(=O)(=O)C3)c2C)CC1 (centres undefined),i
CCN(C(=O)Cn1cccc(-c2nc(C3CC3)no2)c1=O)c1ccccc1,i
O=C(NCC(c1ccsc1)N1CCOCC1)c1cc(C2CC2)on1 (centres undefined),i
N#Cc1ccc(-c2csc(NC(=O)Nc3cccc(Cl)c3)n2)cc1,i
CN1CCN(C(=O)C(=O)Nc2c3c(nn2C(C)(C)C)CSC3)CC1,i

Three records drawn at random from the list so far, as already listed:
structure,GIRK2 activ
O=C(Cc1[nH]nc2ccc(F)cc12)NCCCc1ccccc1,i
Cc1noc(C)c1CCC(=O)N1CCN(c2c(C)nn(C3CCS(=O)(=O)C3)c2C)CC1 (centres undefined),i
Cc1noc(C)c1S(=O)(=O)NCC(c1cccn1C)N(C)C (centres undefined),i

(next part)
structure,GIRK2 activ
Cc1ccc(S(=O)(=O)N2CCN(CC(O)C3CC3)CC2)s1 (centres undefined),i
Cc1nc(N2CCN(C(=O)c3cccs3)CC2)cc(-n2cccc2)n1,i
Cc1cccc2sc(OC3CCN(C(=O)CSCc4ccccc4)CC3)nc12,i
O=C(Nc1nc2c(s1)CN(C(=O)c1cc(-c3ccccc3)on1)CC2)c1ccoc1,i
Cc1cc(NC(=O)Cn2c(C)cc(C)c(C#N)c2=O)ccc1Br,i
Cc1cc(C)n(-c2ccc(C(=O)N3CCN(c4ccc(F)c(Cl)c4)CC3)nn2)n1,i
COc1ccc(C(=O)Nc2ccc3c(c2)CCC(=O)N3CCC(C)C)cc1OC,i
COc1ccc(C(=O)Nc2nccn(-c3ccc(F)c(Cl)c3)c2=O)cc1OC,i
O=C(NCc1ccccc1)c1cc(-c2ccc3c(c2)OCCO3)on1,i
CC(C)S(=O)(=O)c1ccc(CC(=O)NCC#CCOc2ccccc2C(N)=O)cc1,i

Rewritten field by field: part of the list above.
Cc1cccc2sc(OC3CCN(C(=O)CSCc4ccccc4)CC3)nc12
  GIRK2 activ = i
COc1ccc(C(=O)Nc2ccc3c(c2)CCC(=O)N3CCC(C)C)cc1OC
  GIRK2 activ = i
O=C(NCc1ccccc1)c1cc(-c2ccc3c(c2)OCCO3)on1
  GIRK2 activ = i
Cc1ccc(S(=O)(=O)N2CCN(CC(O)C3CC3)CC2)s1 (centres undefined)
  GIRK2 activ = i

High-throughput results deposited in PubChem by Vanderbilt University.
